# Assay outcomes deposited in PubChem BioAssay by National Center for Advancing Translational Sciences (NCATS).
# Sfp PPTase inh: qHTS Assay for Inhibitors of Bacillus subtilis Sfp phosphopantetheinyl transferase (PPTase). AID 1490, 2009. Biochemical Sfp PPTase activity, qHTS. 4'-phosphopantetheinyl transferase ffp (Bacillus subtilis), Q9F4F7. Potency, µM, inactives show max response, negative = inhibition, hits mostly inhibitors. 3.5% of 310,000 active; active = well fitted inhibition curve with a large enough effect; inconclusive = small, poorly fitted or top-dose-only effect, or another doubt; inactive = no such curve, though single readings can be large or run the other way;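 also: the enzyme is Sfp with the accession as filed and its product quenches rhodamine fluorescence; potency is read from the fitted curve at half-maximal effect; 0% = enzyme reaction without inhibitor and -100% = no enzyme wells; top concentration of the series not given in the record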
#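 After 15 min at room temperature with compound, 15 nM Sfp received 5 uM rhodamine-CoA plus 12.5 uM BHQ-2-ybbR (50 mM Hepes pH 7.6, 10 mM MgCl2). Rate came from the fluorescence difference over 30 min, ex 525/em 598 nm.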
# gsp ag: qHTS for Agonist of gsp, the Etiologic Mutation Responsible for Fibrous Dysplasia/McCune-Albright Syndrome: qHTS; gsp mutant cells, cAMP HTRF, 30 min; control for the full effect not named in the record; Potency, µM (highest dose often 76.9 µM), without a hit: at the top dose activation (cAMP increase), hits mostly activators; 0.13% of 340,000 active; AID 624287, 2012; active = well fitted activation curve with a large enough effect; inconclusive = small, poorly fitted or top-dose-only effect, or another doubt; inactive = no such curve, though single readings can be large or run the other way; cell line not stated here;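 also: phosphodiesterase inhibitor Ro 20-1724 added with compounds to block cAMP breakdown; potency is read from the fitted curve at half-maximal effect; nearly all actives have a fitted effect of over 60% in size; about a fifth of the inactives were tested at one dose only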
#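 Cells stably selected in G418 were plated at 2000/well, grown 16-24 hr, then given compounds in DMSO with the PDE inhibitor […] (300 uM solution added) for 30 min at 37C; cAMP was read by HTRF.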
# Menin MLL FP FL: qHTS Assay for Inhibitors Targeting the Menin-MLL Interaction in MLL Related Leukemias: Competition With Fluorescein Labeled MLL-derived Peptide; Fluorescence polarization, fluorescein-MLL peptide displacement from menin; FP activity change, % at 61.4 µM; 290,000 tested, under 10 active; AID 1766, 2009; inconclusive = falling polarisation curve, or a change in total fluorescence; inactive = total fluorescence flat and polarisation flat or rising; no compound was filed as active; the % refers to the polarisation; negative = inhibition;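 also: % of control where 0% means no effect; inhibitors lower the polarisation; unlabelled MLL peptide was the positive control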
# gsp antagonist: qHTS for Antagonists of gsp, the Etiologic Mutation Responsible for Fibrous Dysplasia/McCune-Albright Syndrome: qHTS; gsp-mutant cells, cAMP HTRF, 30 min; control for the full effect not named in the record; Potency, µM (titrated, usually from 76.9 µM), inactives show at the top dose activity change, negative = inhibition, most hits filed as inhibitors; 0.4% of 340,000 active; AID 624288, 2012; active = falling curve of any shape with a large fitted effect; inconclusive = falling curve, mostly with a smaller effect; inactive = flat or rising curve; cell line not stated here;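 also: intracellular cAMP measured with PDE inhibitor Ro 20-1724 present during compound exposure; potency is read from the fitted curve at half-maximal effect; % is scaled to controls: 0 for no effect and ±100 for the full control effect; nearly all actives have a fitted effect of over 65% in size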
#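 HTRF cAMP read-out (cAMP-d2 plus anti-cAMP antibody-K in lysis buffer, 30 min RT). Before lysis, cells are exposed to compounds with […] for 30 min at 37C in DPBS containing Ca/Mg, BSA and Tween 20.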
# D2 PAM: Beta-Arrestin HTS for Positive Allosteric Modulators of the Human D2 Dopamine Receptor: Potentiators. AID 624464, 2012. potentiation, % (no concentration beside the values). DiscoveRx D2 beta-arrestin cells, luminescence, 90 min; 100% = 57 uM dopamine signal. D(2) dopamine receptor (Homo sapiens), P14416. 0.23% of 360,000 active; active = potentiation of 50% or more; inconclusive = 30% to 50%; inactive = 30% or less;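 also: compound concentration not given in the record; tested on top of an EC20 dose of dopamine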
#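 PathHunter D2 cells, attached overnight at 37 deg C, received compound in DMSO plus dopamine at EC20 (50 nM final) for 90 min at 37 deg C. Beta-arrestin recruitment was read as luminescence after 1 h with detection reagent at ambient temperature.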
# TRPV1 PAM: HTS Assay for Compounds that Act as Potentiators of the Vanilloid Receptor 1; Transient receptor potential cation channel subfamily V member 1 (Homo sapiens), Q8NER1; TRPV1-expressing cells, Fluo-8 calcium influx, capsaicin EC20 potentiation; host cell line not named in the record; control for the full effect not named in the record; potentiation, % at 8.33 µM; 0.02% of 320,000 active; AID 540277, 2011; active means potentiation above 80%; inconclusive means 30% to 80%; inactive means below 30%; also: 0% is about no effect
# Target sequence (Q8NER1 whole entry, looked up): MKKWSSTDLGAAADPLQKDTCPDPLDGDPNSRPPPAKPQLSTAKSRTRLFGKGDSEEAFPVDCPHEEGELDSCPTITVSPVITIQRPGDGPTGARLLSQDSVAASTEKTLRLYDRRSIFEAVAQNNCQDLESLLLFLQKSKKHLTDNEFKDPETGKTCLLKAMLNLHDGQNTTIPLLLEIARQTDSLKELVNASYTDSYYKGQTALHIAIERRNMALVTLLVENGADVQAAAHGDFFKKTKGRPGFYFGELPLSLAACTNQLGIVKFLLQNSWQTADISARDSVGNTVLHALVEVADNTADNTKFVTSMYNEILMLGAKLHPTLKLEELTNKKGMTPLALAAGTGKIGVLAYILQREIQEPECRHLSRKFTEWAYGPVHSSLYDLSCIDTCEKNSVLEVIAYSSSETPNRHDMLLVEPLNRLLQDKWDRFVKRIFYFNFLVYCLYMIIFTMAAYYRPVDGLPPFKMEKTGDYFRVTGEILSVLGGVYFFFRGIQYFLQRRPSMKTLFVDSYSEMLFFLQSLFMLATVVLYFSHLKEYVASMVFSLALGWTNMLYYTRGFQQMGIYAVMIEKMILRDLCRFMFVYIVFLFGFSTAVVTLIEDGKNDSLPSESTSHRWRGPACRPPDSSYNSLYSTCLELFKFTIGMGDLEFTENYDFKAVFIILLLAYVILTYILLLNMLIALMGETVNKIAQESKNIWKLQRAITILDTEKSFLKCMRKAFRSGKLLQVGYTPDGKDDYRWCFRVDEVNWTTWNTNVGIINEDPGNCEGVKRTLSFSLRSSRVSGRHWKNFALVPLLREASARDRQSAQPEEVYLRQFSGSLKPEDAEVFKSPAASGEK
#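 TRPV1-expressing cells were cultured overnight at 35.5C and loaded with Fluo-8 calcium dye for 40 to 90 min at room temperature. After a 10 s baseline, compound was added and calcium influx was read kinetically for 3 min (ex 480/em 520 nm).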
# ClpP mod: qHTS Assay for Activators of ClpP. ATP-dependent Clp protease proteolytic subunit (Bacillus subtilis (strain 168)), P80244. purified B. subtilis ClpP, FRET peptide cleavage, 20 min. Potency, µM (top dose mostly 57.5 µM), inactives show top-dose activity change, negative = active. 1.9% of 340,000 active. AID 651965, 2013; active = well fitted falling curve with a large enough effect; inconclusive = small, poorly fitted or top-dose-only effect; inactive = no such curve, though single readings can be large or run the other way; also: potency is read from the fitted curve at half-maximal effect; the source files actives as falling curves though it sought activators and does not explain the sign; nearly all actives have a fitted effect of over 65% in size; many hits overshoot -100%
# Target sequence (P80244 whole entry, looked up): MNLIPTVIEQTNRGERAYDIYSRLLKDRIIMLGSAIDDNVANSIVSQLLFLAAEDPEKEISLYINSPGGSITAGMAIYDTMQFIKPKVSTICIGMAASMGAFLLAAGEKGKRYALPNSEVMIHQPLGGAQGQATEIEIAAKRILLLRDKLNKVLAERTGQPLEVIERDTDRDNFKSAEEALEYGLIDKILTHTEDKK
#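 Buffer: 100 mM Tris/HCl pH8, 100 mM KCl, 0.05% low protease BSA, 2.5% glycerol, 0.01% Tween-20. ClpP 10 microg/mL final; 20 min RT; delta FRET normalized to ADEP and DMSO controls.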
# An asterisk follows results filed as active; u = inconclusive; x = not tested or not shown; & = joins results of further samples; [ ] = another dose, or the depositor's remark.
# Values in the order: Sfp PPTase inh	gsp ag	Menin MLL FP FL	gsp antagonist	D2 PAM	TRPV1 PAM	ClpP mod
1: CC(=O)c1cccc(-n2nnnc2SCC(=O)NNC(=O)C2CCCCC2)c1
    -3%	12%[15.4 µM]	-1.3	15%	0	-4	x
2: COc1ccc(C(C)=O)cc1CS(=O)(=O)CC(=O)NCCc1c[nH]c2ccccc12
    x	9%	x	-6%	1	21	0.8%
3: COc1ccc(NC(=O)CN(C)C(=O)CCc2nc3cc(S(=O)(=O)N4CCOCC4)ccc3n2C)cc1
    x	19%	x	9%	-7	-4	u
4: Cn1c(C(=O)O)c(CC(=O)Nc2ccc3c(c2)OCCO3)c2ccccc21
    9%	-3%[15.4 µM]	-1.2	-4%	-9	-8	-1.2%
5: C=CCn1c(-c2ccc(OC)cc2)csc1=Nc1c(C)n(C)n(-c2ccccc2)c1=O
    -4%	-78%[inhibitor]	-0.1	-10%	-25	11	u
6: COc1ccccc1CC(=O)N1CCCC(CCC(=O)NCc2ccccc2F)C1 (stereo not given)
    15%	u	-0.6	16%	-14	5	-1.9%
7: COC(C/C=C/[C@H](O)COCc1ccccc1)OC
    15%	x	0.1	10%	5	21	4.1%
8: Cc1ccccc1Cn1cc(CCC(=O)N2CCOCC2)c2ccccc21
    6%	-5%	8.0	0%	-4	-1	-15%
9: Cc1ccccc1NC(=O)Cc1cccs1
    8%	2%	1.3	12%	-3	-1	0.1%
10: COc1ccc(/C=N/NC(=O)Nc2cccc3nsnc23)cc1OC
    -9%	5%[15.4 µM]	1.7	2%	-6	-3	0.8%
11: COc1ccc(CNC(=O)C2CCCN2C(=O)NC2CCCCC2)cc1 (stereo not given)
    -1%	-30%	-2.0	14%	-5	12	1.5%
12: Cc1ccc(C(=O)Nc2ccncc2)c(C)c1
    19%	0%[15.4 µM]	2.0	-4%	-4	-25	-1.1%
13: COc1ccc(CN(C)C(=O)C2CC(=O)N(c3ccc4c(c3)OCCO4)C2)c(OC)c1 (stereo not given)
    x	-7%	x	-1%	-3	-6	-1.2%
14: COc1ccccc1C(=O)N/C(=C/c1ccc(Br)cc1)C(=O)NCCO
    6%	-28%	-1.4	-12%	-20	-12	-0.7%
15: CCCn1c(CCc2ccccc2)n[nH]c1=S
    4%	-19%[15.4 µM]	0.0	5%	-7	-4	-10%
16: CC(=O)NCCc1nc2ccccc2n1Cc1cc(C)ccc1C
    7%	0%[15.4 µM]	-0.8	1%	-1	-17	x
17: Cc1nc2c(C(=O)NCc3cccs3)cnn2c(C)c1Cc1ccccc1
    u	x	-0.4	x	x	5	x
18: Cc1cccc2cc(CN(CC3CCCO3)C(=O)c3ccco3)c(=O)[nH]c12 (stereo not given)
    -5%	20%	-0.6	9%	-10	u	-23%
19: COC(=O)COc1ccc(S(=O)(=O)NCCC2=CCCCC2)cc1C
    6%	10%	1.7	-20%	-14	0	0.4%
20: CCc1ccc(N(C(=O)c2csnn2)C(C(=O)NC(C)(C)CC)c2ccccn2)cc1 (stereo not given)
    31%	-4%	-0.1	3%	-2	-13	-0.5%

# Among those listed so far, 2 contain a halogen:
# Values in the order: Sfp PPTase inh	gsp ag	Menin MLL FP FL	gsp antagonist	D2 PAM	TRPV1 PAM	ClpP mod
6: COc1ccccc1CC(=O)N1CCCC(CCC(=O)NCc2ccccc2F)C1 (stereo not given)
    15%	u	-0.6	16%	-14	5	-1.9%
14: COc1ccccc1C(=O)N/C(=C/c1ccc(Br)cc1)C(=O)NCCO
    6%	-28%	-1.4	-12%	-20	-12	-0.7%

# The main list resumes with the two entries that preceded the break.
# Values in the order: Sfp PPTase inh	gsp ag	Menin MLL FP FL	gsp antagonist	D2 PAM	TRPV1 PAM	ClpP mod
19: COC(=O)COc1ccc(S(=O)(=O)NCCC2=CCCCC2)cc1C
    6%	10%	1.7	-20%	-14	0	0.4%
20: CCc1ccc(N(C(=O)c2csnn2)C(C(=O)NC(C)(C)CC)c2ccccn2)cc1 (stereo not given)
    31%	-4%	-0.1	3%	-2	-13	-0.5%
21: Cn1c(SCC(=O)NC2CCCCC2)nnc1-c1ccccc1F
    3%	-11%[15.4 µM]	4.0	11%	-5	5	x
22: CCc1nonc1NC(=O)c1oc2cc(Br)ccc2c1C
    0%	u	x	17%	-12	-16	-4.0%
23: CC1C=CC=CC=CC=CC=CC=CC=CC(OC2OC(C)C(O)C(N)C2O)CC2OC(O)(CC(O)CC(O)C(O)CCC(O)CC(O)CC(=O)OC(C)C(C)C1O)CC(O)C2C(=O)O (stereo not given)
    x	u	x	5%	-2	x	-19%
24: COc1ccc(/C=C2/SC(=S)N(CCCC(=O)N3CCN(C)CC3)C2=O)cc1
    -5%	5%[15.4 µM]	-7.4	-3%	-31	2	0.9%
25: COc1ccc(C2C(C(C)=O)=C(O)C(=O)N2c2cccnc2)cc1OC (stereo not given)
    3%	-25%	3.2	7%	-7	2	-0.3%
26: CCc1nnc(NC(=O)c2csc3c2CCC(C)C3)s1 (stereo not given)
    24%	x	-0.1	x	x	-1	x
27: CCCCCC(O)(c1ccccc1)C(CN1CCOCC1)c1ccccc1 (stereo not given)
    -15%	-22%	-2.3	0%	-8	-20	1.2%
28: Cc1noc(NS(=O)(=O)c2ccc(NC(=O)c3ccccc3NS(=O)(=O)c3ccc(F)c(F)c3)cc2)c1C
    x	8%	x	2%	1	x	-20%
29: CC(C)/C=N\NC(=O)CCCCC(=O)N/N=C/C(C)C
    -5%	6%[15.4 µM]	4.4	15%	-3	0	x
30: COc1cccc(/C=N/c2nc3ccccc3[nH]2)c1O
    2%	6%	-1.4	-7%	-17	0	-1.1%
31: CSc1nsc(SCC(=O)Nc2ccc(Br)cn2)n1
    u	9%	-0.7	-7%	-27	17	68%
32: CC(=O)NC(CC(=O)OCC(=O)NCCc1ccccc1)c1ccccc1 (stereo not given)
    x	-1%	x	-2%	-20	-1	0.2%
33: O=C(Nc1cccn(Cc2ccc(F)cc2)c1=O)NC1CCCCC1
    6%	-29%	1.1	-2%	14	-4	18µM*
34: Cc1ccc(C)c(-c2nnc(NC(=O)CCS(=O)(=O)c3ccccc3)o2)c1
    x	9%[15.4 µM]	x	-9%	-3	11	-5.9%
35: Cc1cccc(N(C)C(=O)c2cc(S(=O)(=O)N3CCCC3)cn2C)c1
    5%	-17%	0.9	6%	0	1	1.1%&-3.5%
36: Cc1ccc(NC(=O)CCn2cccc2)cc1C
    -7%	-38%[inhibitor]	1.8	1%	-10	-9	-1.4%
37: COc1cccc(N2C(=O)CC(c3c[nH]c4ccccc34)C2=O)c1 (stereo not given)
    7%	22%	1.6	20%	-15	-2	-2.5%
38: CC1CCCN(C(=O)COC(=O)C2CCN(S(=O)(=O)c3ccc4c(c3)OCCO4)CC2)C1 (stereo not given)
    x	-3%[15.4 µM]	x	0%	-7	-1	-2.4%
39: C=CCC1C=C(Cc2ccccc2)CC(CC=C)N1 (stereo not given)
    1%	-8%	5.0	5%	-17	7	-0.3%
40: O=C(COCc1cc(-c2ccc3c(c2)OCO3)on1)Nc1cccnc1
    17%	-50%[inhibitor]	2.0	5%	0	-12	-10%
41: CN(C(=O)c1ccccc1C(=O)OCC(=O)NCc1ccccc1)C1CCCCC1
    4%	8%	0.2	0%	-4	-19	-3.1%
42: Cc1sc2nc(C3CC3)nc(N3CCN(C(=O)c4ccc(F)cc4)CC3)c2c1C
    -21%	41%	x	u	-7	-4	x
43: CCCCN1CC[C@H]2C=CC[C@@H](C(=O)NCCc3ccccc3)[C@H]2C1=O
    x	6%	x	8%	-10	x	0.7%&-0.7%
44: CCN(CC)S(=O)(=O)c1ccc(/C(O)=C(\C#N)c2nc3ccccc3n2C)cc1
    25%	-10%	2.0	5%	u	-10	0.7%
45: Cc1cc(C(C)(C)C)cc(S(=O)(=O)NCCO)c1C
    5%	-4%	0.3	6%	0	5	17%
46: COc1ccc(N2CCN(C(=O)CCc3c[nH]c4ccccc34)CC2)cc1
    2%	-11%[15.4 µM]	-1.4	-12%	-1	-10	x
47: CCN(CC)CCN(C(=O)c1ccc(N2C(=O)CCC2=O)cc1)c1nc2cc3c(cc2s1)OCCO3
    u	u	-0.3	6%	-16	22	-1.3%
48: COc1cc(/C=C/C(=O)N2CCC=CC2=O)cc(OC)c1OC
    7%	x	2.4	-7%	-4	-10	1.3%
49: CCn1cc(CNC(=O)c2cc(-c3cc(OC)ccc3OC)nc3ccccc23)c(C)n1
    16%	-2%	2.6	-3%	-21	-4	1.9%
50: CC1(C)N=C(N)N=C(N)N1c1ccc(F)cc1F
    17%	-3%	1.2	5%	-5	0	0.7%
51: Cc1ccc(O)c(C2=NNC(O)(C(F)(F)F)C2)c1 (stereo not given)
    23%	5%	0.1	-16%	26	0	-23%
52: CCOC(=O)/C(=C\C=C\c1ccccc1)NC(=O)c1ccccc1
    -10%	0%	5.5	-25%	-5	-13	-3.3%
53: Cc1cc([N+](=O)[O-])nn1CC(=O)NNC(=S)Nc1ccc(F)cc1
    13%	-82%[inhibitor]	6.5	7%	-15	x	-9.8%
54: CC(=O)Nc1ccc(S(=O)(=O)/N=C2/NC(=O)/C(=C\c3ccco3)S2)cc1
    0%	-16%[15.4 µM]	-1.3	-8%	-7	-24	x
55: Cc1ccc(C(=O)Nc2ccc(Nc3ccccc3)cc2)cc1Br
    x	-7%[15.4 µM]	x	-25%	-8	x	x
56: COc1ccc(NC(=S)NNS(=O)(=O)c2ccc3ccccc3c2)c(OC)c1
    7%	3%[15.4 µM]	0.2	-25%	-5	12	x
57: Cc1ccc(C(=O)Nc2ccc3c(c2)OCO3)cc1S(=O)(=O)N1CCCCC1
    8%	-42%[inhibitor]	3.2	-7%	13	-12	-1.5%
